Screening data deposited in PubChem by Fisher Drug Discovery Resource Center.
NPYLR7 agonist: mosquito NPYLR7 agonism; AID 1259423; HEK293T NPYLR7/Galpha15, GCaMP6s calcium fluorescence; hit rate 0.15% among 270,000; activation, % at 10 µM; in the data active = activation above about 40%;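 note: 0% = vehicle and 100% = reference agonist at the receptor; some compounds past the cut are filed as inactive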
NPYLR7 agonist max-min: also measured in NPYLR7 agonist; calls as there; activation, %; measured here: Max-Min RFU normalised activation; some inactives read as strong as hits;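 span of the calcium signal over five minutes; 0% = vehicle and 100% = native peptide agonist; compound fluorescence can raise it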
Starred values were filed as active, the others as inactive. These rows are one share of the data. The share of hits here may be higher or lower than overall.

SMILES	NPYLR7 agonist	NPYLR7 agonist max-min
Cn1c(=O)c2c(nc(N3CCCCC3)n2Cc2ccccc2Cl)n(C)c1=O	9	5
CC(CC1=CCCN(C)C1)NC(=O)c1ccnc(Cl)c1 (stereo not drawn)	0	-2
CCC(=O)Nc1nnc(SCc2cccc([N+](=O)[O-])c2)s1	10	24
Cc1ccc(C(=O)NCCc2nnc3ccc(SCC(=O)Nc4ccc(Cl)cc4)nn23)cc1	1	-9
CN(Cc1ccc(Br)cc1)C(=O)c1ccc(N(C)C)nc1	8	6
CC1CN(CC(=O)Nc2ccc(C(C)C)cc2)CC(C)O1 (stereo not drawn)	5	0
Cc1nc2n(n1)C(=O)C(C(c1ccco1)N1CCN(c3ccccc3)CC1)S2 (stereo not drawn)	-5	-5
CCOc1ccc(-n2c(SCC(=O)c3ccc(Cl)cc3)nc3c(c2=O)SCC3)cc1	1	44
CC(C)c1ccc(C2(O)CCC(=O)CC2)cc1	1	546
COc1cccc(NC(=O)C2(C)CCN2C(=O)C2CCCCC2)c1 (stereo not drawn)	5	-1

For reference, some entries already given.
SMILES	NPYLR7 agonist	NPYLR7 agonist max-min
CC1CN(CC(=O)Nc2ccc(C(C)C)cc2)CC(C)O1 (stereo not drawn)	5	0
Cc1nc2n(n1)C(=O)C(C(c1ccco1)N1CCN(c3ccccc3)CC1)S2 (stereo not drawn)	-5	-5

More entries follow:
SMILES	NPYLR7 agonist	NPYLR7 agonist max-min
Cc1cc(C(F)(F)F)nc(CCNC(C)Cn2nc(C)cc2C)n1 (stereo not drawn)	2	2
O=C(c1nn(-c2ccccc2F)cc1O)N1CCCCCC1	-22	-22
COCc1cccc(NC(=O)c2ncn[nH]2)c1	7	6
Cc1ccc(COc2cn(CC(=O)NCCc3ccccc3)c(CO)cc2=O)cc1	2	2
O=C(Nc1ccc(Oc2ccccc2)cc1)N1CC(=O)N2CCc3c(F)cccc3C2C1 (stereo not drawn)	0	10
COc1ccc(OCCN(C)S(=O)(=O)c2ccc3c(c2)CCC3)cc1	0	4
CCc1nc2c(OCCn3cccc3)cccn2c1N(C)C(=O)c1ccc(OC)cc1	-7	-11
CCn1nc(-c2nc3c([nH]2)CC(C)(C)CNC3=O)c2ccccc21	20	6
CCn1nc(C)c(NC(=O)CNCCS(=O)(=O)N(C)C)c1C	26	16
Cc1ccc(C(=O)O)cc1NC(=O)c1ccccc1F	10	5
CC1CN(C(=O)CCN2CCc3sccc3C2c2cccc(F)c2)CCN1C(=O)Nc1cccc(Cl)c1Cl (stereo not drawn)	20	8
CC(Oc1ccccc1)C(=O)NN=Cc1cc(Br)ccc1O (stereo not drawn)	4	-2
Fc1ccccc1C1c2cccn2CCCN1Cc1ccncc1 (stereo not drawn)	15	13
COc1ccc(C(=O)N(Cc2cc(NC(=O)c3cccc(F)c3)ccc2N(C)C)CC2CCCO2)cc1 (stereo not drawn)	5	16
S=c1cc(-c2ccccc2)nc2nc[nH]n12	0	-6
Cc1cc(NC(=O)N(C2CC2)C(C)C2CC2)ccc1C(N)=O (stereo not drawn)	0	-1
FC(F)(Cl)c1cc(-c2ccccc2)nc2[nH]c3ccccc3c12	6	6
O=C(CN1CCN(CCO)CC1)Nc1ccccc1[N+](=O)[O-]	-3	-6
CCC(NC(=O)c1c[nH]c2ccccc12)c1ccc(C)cc1 (stereo not drawn)	1	-2
Cc1nc2nc(N)nn2c(C)c1CCC(=O)OC(C)C(=O)NC1CCCC1 (stereo not drawn)	7	4
CCN(CC)CCNc1c([N+](=O)[O-])c(=O)n(CC)c2ccccc12	14	10
Cc1cccc2oc(=O)n(C3CCN(C(=O)C4CCCC4)CC3)c12	1	-1
CC(C)CCN1CCNC(=O)C1CC(=O)N1CCC(CN2CCOCC2)CC1 (stereo not drawn)	10	0
CCc1nc2ccc(C(=O)N3CCN(c4ccccc4)CC3)cn2c1N(CC)CCOC	-3	-6
Cc1ccccc1C(=O)Nc1nnc(SCc2cc(F)ccc2F)s1	-3	7
Cc1ccc2c(c1)C(CC(=O)N1Cc3cnn(CCO)c3C1)C(=O)N2 (stereo not drawn)	9	7
Cc1c(/C=C2\C(=O)N(C(c3ccccc3)c3ccccc3)C(=S)N2C)c(=O)n(-c2ccccc2)n1C	3	-1
Cc1ccn2c(=O)nc(SCc3ccc([N+](=O)[O-])cc3)nc2c1	2	0
CC(Oc1ccc(Cl)cc1Cl)C(=O)NCCn1nc(-c2cccnc2)ccc1=O (stereo not drawn)	1	-10
CCOc1ccccc1N1CCN(C(=O)c2cccc(C)c2)C(C)C1=O (stereo not drawn)	18	22
NC(Cc1ccc(O)cc1)C(=O)O (stereo not drawn)	0	13
Cc1cc(N2CCCCC2)nc(Nc2ccc(NS(=O)(=O)c3cc(C(C)C)ccc3C)cc2)n1	10	1
Cc1cc(OC(=O)c2ccc(Br)o2)c([N+](=O)[O-])c(=O)[nH]1	-5	-6
CCCCn1c(=O)[nH]c(=O)c2c1nc(-c1cc3c(cc1Br)OCO3)n2C	-1	-4
C=CCS(=O)(=O)NCC1CCN(Cc2cccc3nonc23)C1 (stereo not drawn)	-3	-4
Cc1nc(SCC(=O)c2cc3ccccc3oc2=O)c(C#N)c(C)c1C	-4	-8
COc1ccc(-n2c(SCc3ccc(C(=O)NCc4ccc5c(c4)OCO5)cc3)nnc2-c2ccncc2)cc1	-5	7
CNC(=O)C(C#N)C(=O)c1[nH]nc(-c2ccccc2)c1Br (stereo not drawn)	-7	-6
COc1ccc(-c2nc(N(CCC(=O)N3CCN(c4ccccc4F)CC3)Cc3ccco3)c3ccccc3n2)cc1	-10	6
CC(C)O[C@H]1CN(C(=O)c2cnc(-c3ccccc3)nc2)C[C@@H]1O	-2	1

Overlap with the part before: two entries, followed by the next part.
SMILES	NPYLR7 agonist	NPYLR7 agonist max-min
COc1ccc(-c2nc(N(CCC(=O)N3CCN(c4ccccc4F)CC3)Cc3ccco3)c3ccccc3n2)cc1	-10	6
CC(C)O[C@H]1CN(C(=O)c2cnc(-c3ccccc3)nc2)C[C@@H]1O	-2	1
CCC(=O)N1CSCC1C(=O)Nc1ccc2c(c1)CCCN2C (stereo not drawn)	-17	-16
C=CCN(C(=O)CC12CC3CC(CC(C3)C1)C2)C1CCS(=O)(=O)C1 (stereo not drawn)	2	1
CCc1nc2ccc(C(=O)NCCOc3ccc(OC)cc3)cn2c1N(C)C(=O)COc1ccccc1	-5	-10
CCOc1ccc(C(=O)Nc2ccc3oc(-c4ccc(F)cc4)nc3c2)cc1[N+](=O)[O-]	-3	-6
Cc1csc(SCc2ccc(C(=O)N3C4CCC3CC(Oc3cccc(C(F)(F)F)c3)C4)cc2)n1 (stereo not drawn)	1	1
CC(C)N1CCCC(C)(C(=O)Nc2cnc3ccccc3c2)C1 (stereo not drawn)	2	0
O=C(C1CCC(Cn2c(=O)[nH]c3ccsc3c2=O)CC1)N1CCN(c2ccc([N+](=O)[O-])cc2)CC1 (stereo not drawn)	-4	-5
CC(=O)c1[nH]c(C)c(C(=O)N2CCC3(CC2)C(=O)N(C)c2ccccc23)c1C	0	-2
Cc1cc(C)n(-c2nc(C)nc3sc4c(c23)CCC(C)C4)n1 (stereo not drawn)	-6	-7
COc1cccc(CC2(C(=O)O)CCN(c3ccc(Cl)cn3)CC2)c1	-1	-2
O=C(c1cccc(Br)c1)N1CCCC(OCc2cc(F)ccc2F)C1 (stereo not drawn)	-3	-1
Cn1c2c(c(=O)n(C)c1=O)C(C(=O)c1ccc(C#N)cc1)c1c(n(C)c3ccccc13)N2 (stereo not drawn)	3	4
CC(C)NC(=O)NC(=O)CN(C)C(C)C(C)(C)C (stereo not drawn)	-5	-9
Cc1cccc(C)c1OCC(NC(=O)CNC(=O)c1ccccn1)C(C)(C)C (stereo not drawn)	-2	-2
CCOC(=O)CC(=O)CSc1nc(-c2cccc(C)c2)ns1	-4	-6
CCOC(=O)C1(C/C=C/c2ccccc2)CCCN(C(=O)C2=CC(=O)CC(C)(C)O2)C1 (stereo not drawn)	4	2
C=CCN(CC(=O)N1CCc2sccc2C1COc1cccc(OC)c1)C(=O)c1ccc2c(c1)OCO2 (stereo not drawn)	-2	-1
COc1ccccc1N1CCN(C(=O)c2ccccc2Oc2ccccc2)CC1	8	5
CSc1cccc(NC(=O)Nc2ccn(CCN(C)C)n2)c1	3	2
CC1C(=O)N2CCCc3cc(NC(=O)c4cccc(C(F)(F)F)c4)cc1c32 (stereo not drawn)	7	0

Single records (already shown). Screens in order: NPYLR7 agonist | NPYLR7 agonist max-min
Entry for Fc1ccccc1C1c2cccn2CCCN1Cc1ccncc1 (stereo not drawn) → 15 | 13
Entry for S=c1cc(-c2ccccc2)nc2nc[nH]n12 → 0 | -6
Entry for O=C(CN1CCN(CCO)CC1)Nc1ccccc1[N+](=O)[O-] → -3 | -6
Entry for COc1ccc(-n2c(SCc3ccc(C(=O)NCc4ccc5c(c4)OCO5)cc3)nnc2-c2ccncc2)cc1 → -5 | 7
Entry for Cc1ccc(COc2cn(CC(=O)NCCc3ccccc3)c(CO)cc2=O)cc1 → 2 | 2

The list goes on.
SMILES	NPYLR7 agonist	NPYLR7 agonist max-min
CCN(CC)S(=O)(=O)c1ccc(C(=O)N2CCN=C2SCc2ccc(C(F)(F)F)cc2)cc1	0	-3
COc1ccc(NC(=O)C2(C)CCN2Cc2ccc(SC)cc2)cc1OC (stereo not drawn)	0	-2
CCC1CCC(c2ccc(C3=N/C(=C/C(C)=C/c4ccccc4)C(=O)O3)cc2)CC1 (stereo not drawn)	-8	-1
O=C(CN1CCN(c2ccccc2F)CC1)N1N=C(c2ccccc2Cl)CC1c1cccc(F)c1 (stereo not drawn)	14	16
Cc1cccc(-c2nc3nc(C)cc(C)n3c2Nc2c(C)cccc2C)c1	4	11
Cc1cc(C)c2nc(SCC#N)cc(C)c2c1	1	3
COc1ccc(CN(CCc2c[nH]c3ccccc23)C(=O)CN(CC(C)C)C(=O)c2cccc(OC)c2)cc1	23	31
Cc1ccc(C)c2[nH]c(=O)c(CCNC(=O)CC(C)(C)C)cc12	13	10
O=C(Nc1ccc(N2CCCCC2)cc1)c1ccc(-n2cnnn2)cc1	7	3
CCN(CC(=O)N(C)C)C(=O)C1CC1c1cccc(C)c1 (stereo not drawn)	2	5
CC(C)c1ccc(-n2nnnc2Sc2ncccc2C#N)cc1	1	1
O=C(NCCCc1ccccc1)c1csc(NS(=O)(=O)c2cccs2)n1	-7	-6
CCCCOc1ccc(-c2nc(C=Nc3nc4ccc(OCC)cc4s3)c(O)o2)cc1	-2	-7
C=CCc1cc(/C=C2/C(=N)N3N=C(C)SC3=NC2=O)cc(OC)c1OCc1ccccc1	-4	-4
Nc1ncc(-c2ccc(-c3ccccc3)cc2F)cc1-c1ccccc1F	-3	-9
Cc1cc(C)[n+]2c(n1)sc1ccccc12	-8	-19
O=C(CSc1ncnc2sc3c(c12)CCC3)Nc1ccc(S(=O)(=O)N2CCCC2)cc1	0	-1
O=C(NC(C(=O)N1CCCC1)C1CCN(S(=O)(=O)c2ccc(Cl)cc2)CC1)c1cccs1 (stereo not drawn)	10	14
O=C(c1cn[nH]n1)N1CCC(c2cc(-c3ccccc3Cl)n[nH]2)CC1	1	15
CCCCNC(=O)N(CCCOC)CC(=O)N(Cc1cccn1Cc1ccc(F)cc1)C1CCCCC1	14	20
C=CCn1c(=O)c(C(=O)Nc2ccc(Br)cc2)c(O)c2ccccc21	5	2
COc1cc(OC)cc(C(=O)N2CCN(c3ccc(Cl)cc3Cl)C(=O)C2C)c1 (stereo not drawn)	0	3
CCN(c1ccccc1)S(=O)(=O)c1cc(C)c2[nH]c(=O)cc(C)c2c1	1	7
CN(Cc1ccccc1)C1(CNC(=O)C2=CC(=O)CC(C)(C)O2)Cc2ccccc2C1	5	1
Cc1nn(S(=O)(=O)c2ccc3ccccc3c2)c(C)c1S(=O)(=O)N1CCOCC1	5	2
O=C(Nc1c2c(nn1-c1ccc([N+](=O)[O-])cc1)CSC2)c1ccco1	26	27
N#CC(=Cc1ccccc1[N+](=O)[O-])C(=O)Nc1ccc2c(c1)OCCO2	-1	2
CCCC(C)C1C2=C(CC(C)(C)CC2=O)OC(=N)C1C#N (stereo not drawn)	-2	-3
COCCN1C=C(C(=O)OC)C(c2cccs2)C(C(=O)OC)=C1	0	1
COCCN1C(=O)C2(SCCN2C(=O)NCc2cccc(C)c2)c2ccccc21 (stereo not drawn)	0	5

Reformatted: results already given.
C=CCn1c(=O)c(C(=O)Nc2ccc(Br)cc2)c(O)c2ccccc21
  NPYLR7 agonist: 5
  NPYLR7 agonist max-min: 2
COc1cc(OC)cc(C(=O)N2CCN(c3ccc(Cl)cc3Cl)C(=O)C2C)c1 (stereo not drawn)
  NPYLR7 agonist: 0
  NPYLR7 agonist max-min: 3

New compounds follow:
SMILES	NPYLR7 agonist	NPYLR7 agonist max-min
Cc1ccc(C(=O)NCCc2nnc3ccc(SCC(N)=O)nn23)cc1	-28	-29
COc1cccc(CN2CC(O)CN(S(=O)(=O)c3ccc(F)cc3)CC2=O)c1OC (stereo not drawn)	27	28
CN(C)C(=O)CN1CCN(c2nc3nonc3nc2NCc2ccccc2)CC1	10	3
COc1ccc(CN(Cc2ccccc2F)CC(O)COCC(C)C)cc1 (stereo not drawn)	17	13
